Bioassay records deposited in PubChem BioAssay by National Center for Advancing Translational Sciences (NCATS).
HPGD block – blocks human HPGD enzyme activity; P15428; purified HPGD, NADH fluorescence kinetic, PGE2 substrate; Potency, µM, for the others: at the highest dose activity change, negative = inhibition, actives largely listed as inhibitors; 4.3% of 150,000 active; active = well fitted inhibition curve with a large enough effect (not every such curve was filed as active); inconclusive = small, poorly fitted or top-dose-only effect, or another doubt; inactive = no such curve, though single readings can be large or run the other way;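 also: top concentration of the series not given in the record; plate controls included wells without enzyme; inactives centre near -10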
Target sequence (P15428 whole entry, looked up): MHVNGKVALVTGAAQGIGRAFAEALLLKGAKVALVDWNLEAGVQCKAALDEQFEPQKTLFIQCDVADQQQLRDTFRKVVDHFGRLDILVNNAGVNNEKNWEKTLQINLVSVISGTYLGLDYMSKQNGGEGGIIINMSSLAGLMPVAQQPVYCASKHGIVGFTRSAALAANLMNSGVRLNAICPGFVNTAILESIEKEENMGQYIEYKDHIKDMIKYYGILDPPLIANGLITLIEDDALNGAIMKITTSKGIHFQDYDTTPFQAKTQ
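NADH formation kinetics: reaction with 30 uM PGE2 and 1 mM NAD+ (final), 20 nM enzyme, Tris-HCl pH 8 with Tween 20, after 15 min compound preincubation at room temperature. Fluorescence change, last versus first of five reads.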
* marks the source's active call; other numbers are inactive results; ? = inconclusive; & = joins results of further samples; [ ] = another dose, or the depositor's remark. % is scaled to controls: 0 for no effect and ±100 for the full control effect; potency is read from the fitted curve at half-maximal effect. Some of the compounds tested; rates above refer to the full screens.

SMILES	HPGD block
Cc1nc2c(-c3ccc(F)cc3)c(C)nn2c(N2CCOCC2)c1C	?
CN1CCCC2(CCN(C(=O)c3cc(C(F)(F)F)cc(C(F)(F)F)c3)CC2)C1	-9%
O=S1(=O)N=C(N(CCO)/N=C/C=C/c2ccccc2)c2ccccc21	-12%
COc1ccc(C(=O)NNC(=O)CN2CCC(n3nnc4cc(C)ccc43)CC2)cc1	2%
N#CC1=C(N)NC(SCC(=O)c2ccc(Br)cc2)=C(C#N)C12CCCCC2	-17%
O=C(N/N=C/c1ccccn1)c1ccco1	-8%
COc1cccc(N2CCN(C(=O)C3C4C=CC5(CN(Cc6ccccc6Cl)C(=O)C35)O4)CC2)c1 (stereo unspecified)	-14%
O=C(c1cccnc1NCc1ccccc1)N1CCOCC1	-14%
Cc1nc(N2CCCCC2)c2sc(=S)n(C)c2n1	-4%
O=C(C1CCCN(S(=O)(=O)c2cnc[nH]2)C1)N1CCN(c2ccc(Cl)cc2)CC1 (stereo unspecified)	-9%
CCOc1ccc(N(CC(=O)N2CCCC2)S(=O)(=O)c2c(C)noc2C)cc1	-12%
CCc1ccc(-c2nn(-c3ccccc3)cc2CSC(=N)N)cc1	-11%
Cc1nn(Cc2c(Cl)cccc2Cl)c(C)c1NC(=O)c1sc2ccccc2c1Cl	-12%
COc1cccc(/C(O)=C2/C(=O)C(=O)N(CCCN3CCOCC3)C2c2ccncc2)c1 (stereo unspecified)	-7%
COc1ccc(C(C)=O)cc1CN1CCCCC1	-6%
CN(C)CCCNc1cn[nH]c(=O)c1Cl	1%
O=C(N/N=C/c1ccco1)c1cc(-c2ccccc2)n[nH]1	-16%
Oc1cccc2ccc(/C=C/c3cccs3)nc12	-12%
Cc1cc(Cl)cc(Cl)c1OCC(=O)NCc1ccco1	25µM*
COc1cccc(C2(c3cccc(OC)c3)CC2C(=O)Nc2ccc(F)cc2)c1 (stereo unspecified)	-5%
COc1ccc(/C=C(\NC(=O)/C=C/c2ccco2)C(=O)NCCc2nc3ccccc3[nH]2)cc1	-13%
CCCCCCCCN	-16%
Cc1cc(N2CCN(C)CC2)nc2ccc(NC(=O)c3cccnc3Cl)cc12	-15%
CCOC(=O)N1CCN(C(=O)c2ccc(CS(=O)(=O)c3ccc(OC)cc3)o2)CC1	-6%
Cc1ccc(Oc2c(F)c(F)nc(N3CCCC3)c2F)cc1	-27%
O=C1C(c2[nH]c3ccccc3c2O)=Nc2ccccc21	-14%
CC(=O)NCCNc1nc(-c2ccc(N(C)C)cc2)nc2ccccc12	-27%
O=C(C1CSC2(c3ccc(F)cc3)CCC(=O)N12)N1CCCCCC1 (stereo unspecified)	0%
COCCNC(=O)C1CCN(S(=O)(=O)c2ccccc2)CC1	25µM*
CCOC(=O)c1cc(-c2ccccc2)sc1NC(=O)C(C)Sc1nnnn1C (stereo unspecified)	-14%
O=C(CN1C2CCCC1CC(NC(=O)c1ccco1)C2)Nc1ccccc1 (stereo unspecified)	-15%
CN(C)c1ccc(N=Cc2nc(-c3ccccc3)oc2OC(=O)c2cccc(Cl)c2)cc1	?
COc1ccc(C(=O)N2CCN(c3ccc([N+](=O)[O-])c(NCCc4ccc(OC)c(OC)c4)c3)CC2)cc1	-14%
C#CCn1cc(/C=N/NC(=O)c2cc3ccccc3o2)c2ccccc21	-19%
N#CC1=C(SCc2ccccc2)NC(=O)C(C#N)C12CCCC2 (stereo unspecified)	18µM*
CCN1CCN(c2nc(N)c([N+](=O)[O-])c(Nc3cccc(C)c3)n2)CC1	-16%
CCN(C(=O)CSc1ncn[nH]1)c1cccc2ccccc12	-12%
CN(C)c1nc(SCc2ccccc2Cl)nc2c1CCCC2	-9%
CN1CCN(C2CC(=O)N(Cc3ccc(N4CCCC4=O)cc3)C2=O)CC1 (stereo unspecified)	-6%
Cc1nc2ccccc2n2c(-c3ccccc3)c3c(=O)n(C)c(=O)n(C)c3c12	-21%

2 records drawn at random from the list so far:
SMILES	HPGD block
CCN(C(=O)CSc1ncn[nH]1)c1cccc2ccccc12	-12%
CN(C)c1nc(SCc2ccccc2Cl)nc2c1CCCC2	-9%

(cont.)
SMILES	HPGD block
O=C(Cc1ccc(F)cc1)N(c1ccc(F)cc1)C1C=CS(=O)(=O)C1 (stereo unspecified)	-4%
Cc1ccc(C)c(C(=O)c2c(C)nc3sccn23)c1	-16%
CCOC(=O)Cn1ccc(O)c(Cc2ccc(Cl)cc2Cl)c1=O	-5%
N#Cc1c(N)nc2c(c1-c1cccc(O)c1)CCCCCC2	?
Cc1ccc2nsnc2c1S(=O)(=O)N(Cc1cc2cccc(C)c2[nH]c1=O)CC1CCCO1 (stereo unspecified)	4%
COc1ccc(S(=O)(=O)N[C@@H](C)C(=O)OCC(=O)Nc2cc3oc4ccccc4c3cc2OC)cc1	-26%
NC(=O)c1cc2ccccc2oc1=NCc1ccccc1	-24%
Cn1nnc(NC(=O)CSc2ncn[nH]2)n1	-3%
N#CCC(=O)NCCCc1ccccc1	-3%
Cc1ccc2nc(SCC(=O)NCC3CCCO3)c(C#N)cc2c1 (stereo unspecified)	6.3µM*
COC(=O)c1cc(OC)c(OC)cc1NC(=O)CN1CCCCC1	-3%
COc1ccc(Cl)cc1NC(=O)CSc1nncn1-c1cccnc1	-12%
Cc1ccc2oc3c(c(=O)c2c1)C(c1ccc(F)cc1)N(CCCN1CCOCC1)C3=O (stereo unspecified)	-25%
O=C(O)c1cccc(NC(=O)C2C3C=CC(C3)C2C(=O)OCC(F)(F)C(F)F)c1 (stereo unspecified)	2%
Cc1nnc(N2CCc3ccccc3C2)[nH]c1=O	-28%
O=C(NCCc1ccccc1)c1cccc([N+](=O)[O-])c1	?
O=C(c1ccco1)N1CCN(S(=O)(=O)c2cccc(C(F)(F)F)c2)CC1	-9%
COC(=O)c1cn(Cc2cccc(C)c2)nn1	-8%
O=C(Nc1ccc(OCC(=O)N2CCOCC2)cc1)c1cncc(Br)c1	-8%
CCOC(=O)C(=O)Nc1ccccc1C(=O)Nc1ccc(OC)cc1	?
NNC(=O)[C@@H](O)[C@H](O)[C@H](O)CO	1%
Cc1cccc(-n2c(C)nc3sccc3c2=O)c1	-10%
N#CCSc1nc2sc3c(c2c(=O)n1C1CCCCC1)CCCC3	-20%
O=S(=O)(c1ccccc1)N(CC(O)Cn1c2ccccc2c2ccccc21)c1ccccc1 (stereo unspecified)	33%[activator]
CN(C)S(=O)(=O)c1cc(C(=O)NCCCn2ccc3ccccc32)ccc1Cl	-8%
COc1cc(C2C(C#N)=C(N)Oc3c2ccc2ccccc32)ccc1OCC(=O)Nc1cccc(C)c1 (stereo unspecified)	?
CCCCNC(=O)CC1SC(=NCC)N(CC)C1=O (stereo unspecified)	-8%
CC(C)[C@@H](CC(=O)N[C@@H]1CCCC[C@H]1C(=O)N[C@H](CC(=O)N[C@@H](CCC(=O)O)CC(=O)O)Cc1ccccc1)NC(=O)C[C@H](Cc1c[nH]c2ccccc12)NC(=O)[C@@H]1CCCC[C@H]1N	-1%
O=P(Cc1cccc[n+]1[O-])(c1ccccc1)c1ccccc1	-13%
CCC(C)n1[nH]c(=O)cc1N (stereo unspecified)	4%
Cc1cccc(-n2c(-c3ccncc3)n[nH]c2=S)c1	-28%
O=C(COc1ccc(F)cc1)NC1CC1	-3%
Cc1ccc2c(c1)N(CC(=O)N1CCCc3ccccc31)C(=O)C(C)O2 (stereo unspecified)	-5%
Cc1sc(NC(=O)CCC(=O)O)c(C(N)=O)c1-c1ccccc1	14µM*
CCC(=O)N(CCCN(C)C)c1nc(-c2cc(OC)ccc2OC)cs1	-6%
COc1cc(C(=O)Nc2nc(-c3cccs3)cs2)cc(OC)c1OC	?
CC(C)c1cc(C(=O)NCc2cccnc2)no1	3%
COCCNC(=O)Cn1c(=O)n(CCC(=O)NCCc2ccccc2)c(=O)c2ccccc21	-18%
CC1(O)CC(=O)N(c2ccccc2)O1 (stereo unspecified)	-10%
COc1ccc(C(=O)NCc2cccnc2)cc1C(=O)NCc1cccnc1	-4%&-9%
Cc1ccc(C(=O)Nc2nc3ccccc3n3nnnc23)cc1	-11%
CCCCC(c1nnnn1CCOC)N1CCN(C(=O)c2ccco2)CC1 (stereo unspecified)	-6%
Cc1ccc(-c2nn(-c3ccccc3)cc2/C=N/NC(=O)c2ccc(Br)o2)cc1	?
COc1ccc(C(CC(=O)O)NC(=O)Cc2ccccc2)cc1OC (stereo unspecified)	-7%
CC1CN(C2CCN(S(=O)(=O)c3ccccc3)CC2)CC(C)O1 (stereo unspecified)	-11%
Cc1ccc2c3c(cccc13)-c1ccccc1C2=O	-6%
COc1ccc(C2(O)CCN(Cc3nnnn3Cc3ccc(F)cc3)CC2)cc1	-8%
COc1ccccc1C1CC(=O)Oc2c(C(C)C)ccc(C)c21 (stereo unspecified)	-18%
Cc1nc2cc(N3CCCCC3)c(NC(=O)c3ccncc3)cc2c(=O)n1Cc1ccc(Cl)cc1	-16%
COc1cccc(N)c1	-4%
O=C(CCn1nc(-c2ccc(Cl)cc2)ccc1=O)NCc1cccnc1	-20%
CCOC(=O)c1c(C)nc2c(c1-c1cc(OC)ccc1OC)C(=O)c1ccccc1-2	-25%
CC1CCCCC1NC(=O)CSCC(=O)O (stereo unspecified)	-5%
Cc1cc(C)cc(NC(=O)C2CCCN2/C=C/C(=O)C(F)(F)F)c1 (stereo unspecified)	-6%
CCC12CN3CCN(CC(C3)/C1=N\NC(=O)Nc1ccccc1)C2	1%
COc1ccc(-c2nnn(Cc3nn[nH]n3)n2)cc1OC	?
COc1cc(C(=O)Nc2ccncc2)cc(OC)c1OC	-14%
Nc1nonc1-c1noc(N2CCCCC2)n1	-7%
CC(=O)CC(C)(C)n1nnc(-c2ccccc2)n1	-2%
CCOC(=O)c1c(C)[nH]c(C(=O)COC(=O)CNC(=O)c2ccccc2Cl)c1C	-14%
Following part:
SMILES	HPGD block
CCc1cccc(CC)c1NC(=O)COC(=O)c1ccc2c(c1)S(=O)(=O)c1ccccc1C2=O	-11%
Cc1ccc(C)c(NC(=O)c2sc(Cl)nc2C)c1	-13%
COc1ccc(CNC(=O)c2ccc(NC(=O)CC3SC(N4CCCC4)=NC3=O)cc2)cc1 (stereo unspecified)	-3%
O=C(Nc1ccc(Cl)cn1)Nc1ccccc1F	-16%
Oc1ccccc1-c1cc(-c2ccc3c(c2)OCCO3)n[nH]1	-19%
O=c1c2ccccc2oc2nc(C3CCCCC3)n(Cc3ccco3)c(=O)c12	-6%
Cc1ccc(C(=O)CSc2nnc(-c3ccccc3N)n2C)cc1C	1%
Cn1c(=O)[nH]c(=O)c2c1nc(NCCCn1ccnc1)n2Cc1ccccc1	-13%
COc1cccc(CN2CCN(CC(=O)Nc3ccccc3Cl)CC2)c1	-5%
COc1ccc(NC(=O)CSc2ncnc3c2cnn3Cc2ccccc2)cc1	-28%
O=C(COC(=O)c1n[nH]c2ccccc12)NCc1ccccc1	-10%
C/C(=N\NC(=O)C1CCCN(S(=O)(=O)c2ccccc2)C1)c1ccncc1 (stereo unspecified)	-11%
CC1=CC2=NCC(O)CN2C=C1 (stereo unspecified)	?
CS(=O)(=O)Nc1ccc(N2CCCCC2)c(Cl)c1	7.1µM*
COC(=O)c1ccc(C)c(NC(=O)Cn2cnc3ccccc3c2=O)c1	-11%
CCN(CC)S(=O)(=O)c1cccc2nsnc12	-11%
CCN(CC)CCNC(=O)CS(=O)Cc1nc(-c2ccccc2Cl)oc1C (stereo unspecified)	-5%
CN1CCC(OC(=O)C23CCC(C)(C(=O)O2)C3(C)C)CC1 (stereo unspecified)	-15%
Nc1c(C(=O)NCc2ccco2)c2nc3ccccc3nc2n1CCc1ccccc1F	?
Nc1ccc(-c2nc3c(Cl)cc(N)cc3[nH]2)cc1	?
O=C(/C=C/c1ccc2c(c1)OCO2)Nc1cc(S(=O)(=O)N2CCOCC2)ccc1N1CCOCC1	?
O=C(Nc1nc(=O)c2ccccc2s1)c1ccc(F)cc1	-5%
COc1ccccc1N(CC(=O)NCC1CCCO1)C(=O)CCC(=O)Nc1nccs1 (stereo unspecified)	-5%

Molecules from the list above containing an NH in an aromatic ring, in the order listed:
SMILES	HPGD block
O=C(C1CCCN(S(=O)(=O)c2cnc[nH]2)C1)N1CCN(c2ccc(Cl)cc2)CC1 (stereo unspecified)	-9%
CN(C)CCCNc1cn[nH]c(=O)c1Cl	1%
O=C(N/N=C/c1ccco1)c1cc(-c2ccccc2)n[nH]1	-16%
COc1ccc(/C=C(\NC(=O)/C=C/c2ccco2)C(=O)NCCc2nc3ccccc3[nH]2)cc1	-13%
O=C1C(c2[nH]c3ccccc3c2O)=Nc2ccccc21	-14%
CCN(C(=O)CSc1ncn[nH]1)c1cccc2ccccc12	-12%
Cc1ccc2nsnc2c1S(=O)(=O)N(Cc1cc2cccc(C)c2[nH]c1=O)CC1CCCO1 (stereo unspecified)	4%
Cn1nnc(NC(=O)CSc2ncn[nH]2)n1	-3%
Cc1nnc(N2CCc3ccccc3C2)[nH]c1=O	-28%
CC(C)[C@@H](CC(=O)N[C@@H]1CCCC[C@H]1C(=O)N[C@H](CC(=O)N[C@@H](CCC(=O)O)CC(=O)O)Cc1ccccc1)NC(=O)C[C@H](Cc1c[nH]c2ccccc12)NC(=O)[C@@H]1CCCC[C@H]1N	-1%
CCC(C)n1[nH]c(=O)cc1N (stereo unspecified)	4%
Cc1cccc(-n2c(-c3ccncc3)n[nH]c2=S)c1	-28%
COc1ccc(-c2nnn(Cc3nn[nH]n3)n2)cc1OC	?
CCOC(=O)c1c(C)[nH]c(C(=O)COC(=O)CNC(=O)c2ccccc2Cl)c1C	-14%
Oc1ccccc1-c1cc(-c2ccc3c(c2)OCCO3)n[nH]1	-19%
Cn1c(=O)[nH]c(=O)c2c1nc(NCCCn1ccnc1)n2Cc1ccccc1	-13%
O=C(COC(=O)c1n[nH]c2ccccc12)NCc1ccccc1	-10%
Nc1ccc(-c2nc3c(Cl)cc(N)cc3[nH]2)cc1	?
